# Rango dissoc inh = inhibitors of RanGTP-induced Rango-importin beta complex dissociation; O95149+P62826; Biochemical FRET Rango-importin beta, RanGTP-induced dissociation; Potency, µM (doses to about 46.1 µM), inactives show top-dose activity change, negative = inhibition; 340,000 compounds, 0.071% hits; AID 540253; active means falling FRET ratio curve, often poorly fitted, with flat reads before Ran was added; inconclusive means other falling curves, or compound fluorescence or quenching; inactive means flat or rising ratio curve;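 also: potency is read from the fitted curve at half-maximal effect; % of control where 0% means no effect; nearly all actives have a fitted effect of over 45% in size; -100% = wells without RanGTP and RCC1; the record marks most hits as doubtful in a second field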
#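 Compounds sat 5 min at room temperature with 0.1 uM Rango biosensor plus 0.25 uM importin beta, then FRET pre-read. RanGTP-RCC1 (0.6 uM Ran, 2mM GTP, 0.2 uM RCC1) added for 45 min, and the CFP/YFP post-read measured blocked complex dissociation.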
# miR-21 FLuc = raises the signal of a miR-21 reporter. HeLa miR-21 FLuc reporter, luciferase, 48 h. Potency, µM (doses to about 38.3 µM), for the others: at the top dose reporter change, positive = more light. 340,000 tested, under 10 active. AID 2288; active = well fitted rising curve with a large enough effect; inconclusive = small, poorly fitted or top-dose-only effect; inactive = no such curve, though single readings can be large or run the other way;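 also: % of control where 0% means no effect; miR-21 action dims this reporter so a rising signal means less miR-21 action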
#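 HeLa cells endogenously expressing miR-21, stably carrying CMV-driven firefly luciferase with a downstream miR-21 binding site, 2000 cells/well. Titrations up to approximately 40 uM, 48 hours; luciferase luminescence read.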
# GLA inh pH 4.5 = alpha-galactosidase A (human) inhibition, pH 4.5; P06280; purified enzyme, 4-MU-alpha-Gal fluorescence, pH 4.5; activity change, negative = inhibition, % at 105 µM; 230,000 tested, under 10 active; inconclusive = small, poorly fitted or top-dose-only inhibition, or a rising curve; inactive = flat fitted curve, though single readings scatter; no compound was filed as active;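 also: 0% = full activity with enzyme and -100% = basal without enzyme; dose as in the result columns while the protocol names 77 µM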
# Rango complex inh = prevents formation of the Rango-importin beta complex; Rango CFP/YFP FRET sensor + importin beta, 45 min; Potency, µM (highest dose often 92.2 µM), for the others: top-dose inhibition of complex formation; AID 540263; 340,000 compounds, 0.031% hits; Q14974; active = rising FRET ratio curve, often small or poorly fitted; inconclusive = mostly compound fluorescence or quenching in the first reads; inactive = flat curves in all reads;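 also: potency is read from the fitted curve at half-maximal effect; 0% = DMSO wells and 100% = buffer wells lacking importin beta; nearly all actives have a fitted effect of over 15% in size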
# Target sequence (Q14974 whole entry, looked up): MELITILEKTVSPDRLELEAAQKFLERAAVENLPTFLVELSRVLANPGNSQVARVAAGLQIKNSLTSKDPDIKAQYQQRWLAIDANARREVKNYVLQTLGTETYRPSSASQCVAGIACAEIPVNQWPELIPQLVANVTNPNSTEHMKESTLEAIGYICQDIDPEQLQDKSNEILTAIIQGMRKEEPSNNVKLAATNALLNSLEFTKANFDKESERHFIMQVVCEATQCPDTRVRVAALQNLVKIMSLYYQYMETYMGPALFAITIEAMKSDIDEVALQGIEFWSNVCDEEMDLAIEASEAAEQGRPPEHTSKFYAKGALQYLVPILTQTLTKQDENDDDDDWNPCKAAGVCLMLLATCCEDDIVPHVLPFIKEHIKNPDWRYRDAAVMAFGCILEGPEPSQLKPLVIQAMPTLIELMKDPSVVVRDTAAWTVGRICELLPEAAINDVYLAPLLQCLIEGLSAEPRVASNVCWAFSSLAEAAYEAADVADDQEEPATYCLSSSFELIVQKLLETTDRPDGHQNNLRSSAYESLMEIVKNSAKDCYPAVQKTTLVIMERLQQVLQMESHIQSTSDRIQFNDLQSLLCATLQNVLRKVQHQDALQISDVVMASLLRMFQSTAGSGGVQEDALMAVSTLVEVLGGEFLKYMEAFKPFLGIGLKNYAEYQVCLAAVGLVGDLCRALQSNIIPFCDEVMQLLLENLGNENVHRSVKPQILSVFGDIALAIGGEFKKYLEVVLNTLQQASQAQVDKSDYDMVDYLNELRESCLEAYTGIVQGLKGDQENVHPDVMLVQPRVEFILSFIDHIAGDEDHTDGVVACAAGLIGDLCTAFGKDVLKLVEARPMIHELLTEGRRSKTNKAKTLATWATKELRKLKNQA
#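 Inhibition scored from the CFP 486 nm/YFP 530 nm FRET ratio 45 min after adding 0.125 microM importin beta to 50 nM Rango biosensor preincubated 5 min with compound (room temperature, PBS with DTT, Tween-20, BSA). No-importin wells as positive control.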
# Numbers without * were called inactive; ? = inconclusive; . = not tested or not shown; & = joins results of further samples. An excerpt; rates above refer to the full screens.
SMILES	Rango dissoc inh	miR-21 FLuc	GLA inh pH 4.5	Rango complex inh
CN(C)S(=O)(=O)c1ccc(Cl)c(NC(=O)COC(=O)CN2C(=O)C3CCCCC3C2=O)c1 (configuration not stated)	1.7%	1.4%	-1.0	3.5%
COc1ccc(CNC(=O)COC(=O)CCOc2ccc(C)cc2)cc1OC	-16.6%	.	.	-0.4%
COc1cccc(CC(=O)N[C@@H](CCSC)c2nc3ccccc3[nH]2)c1	17.1%	-1.1%	-5.8	-0.6%
O=C(c1cnc2c(c1)COc1ccc(Cl)cc1-2)c1ccccc1O	1.4%	-10.3%&-3.8%	-4.8	1.6%
CC(C)NC(=O)Nc1ccc2c(c1)C(=O)N([C@H](C)CO)C[C@H](C)[C@@H](CN(C)S(C)(=O)=O)O2	1.8%	.	.	-0.6%
O=C(CCN1C(=O)/C(=C/C=C/c2ccccc2)SC1=S)Nc1ccccn1	9.4%	14.4%	-10.1	-8.1%
COc1ccc(NC(=O)CN(C)C(=O)c2sc3ccccc3c2Cl)cc1	0.6%	.	.	3.5%
COc1ccc(C2CC(c3cccs3)=NN2C(=O)COC(=O)c2cncc(Br)c2)cc1OC (configuration not stated)	-13.9%	-4.2%	-11.0	-2.8%
CCOC(=O)C1CCCN(S(=O)(=O)c2cc(C(=O)OC)n(C)c2)C1 (configuration not stated)	7.0%	12.4%	.	6.0%
COc1cc(NC(=O)c2ccnc(N)c2)cc(C(=O)Nc2cccc(C(F)(F)F)c2)c1	0.1%	12.8%	-4.3	0.6%
Cc1ccccc1CSCCNC(=O)CN(c1ccc2c(c1)OCO2)S(C)(=O)=O	9.4%	-8.8%	-2.1	-5.0%
CCCC(O)(CCN(C)C)c1ccc(OC)cc1 (configuration not stated)	?	1.2%	6.9	-5.6%
COc1cccc2cc3c(=O)n(-c4ccccc4)nc-3oc12	-1.7%	0.0%	-1.0	-2.2%
O=C(N/N=C\c1ccc(Cl)cc1)c1sccc1-n1cccc1	4.8%	-18.5%	-2.6	4.7%
COc1ccc(NC2CCCN(C(=O)c3cccnc3)C2)cc1 (configuration not stated)	0.2%	-0.7%	.	-4.1%
O=C(O)COCc1nc2ccccc2[nH]1	-5.7%	-0.4%	1.5	3.3%
O=C(COC(=O)C1=COCCO1)Nc1cccc(S(=O)(=O)N2CCOCC2)c1	-1.9%	-1.0%	.	4.0%
O=C1NC(=O)C(c2ccccc2)(c2ccccc2)N1	2.4%&-10.4%	1.1%&-3.3%&-0.2%	3.7&-0.9&4.3&7.4	10.7%&-1.3%
O=C(NCc1cccc(CNC(=O)Nc2cccc(O)c2)c1)Nc1cccc(O)c1	-4.7%	0.3%	.	2.4%
COc1cc(C(=O)N(Cc2ccc(F)cc2)C2CCS(=O)(=O)C2)cc(OC)c1OC (configuration not stated)	1.3%	-6.1%	-9.9	0.3%
CCOC(=O)CCCCCC(=O)Nc1ccc2c(c1)CC(=O)N([C@H](C)CO)C[C@H](C)[C@H](CN(C)S(=O)(=O)c1ccc(OC)cc1)O2	0.7%	.	.	-3.3%
Cc1ccc(OCCSc2ncnc3nc[nH]c23)cc1	0.2%	-51.2%	6.6	-2.9%
COc1ccccc1CNS(=O)(=O)c1cc2c3c(c1)CCN3C(=O)CC2	17.4%	3.0%	.	-7.5%
CC(C)OC(=O)CCC/C=C\C[C@@H]1[C@@H](CC[C@@H](O)CCc2ccccc2)[C@H](O)C[C@@H]1O	.	28.4%	-6.9	.
Cc1ccc(-n2nc3c(c2NC(=O)c2ccc4c(c2)OCO4)CS(=O)(=O)C3)cc1C	1.5%	-8.5%	.	-4.2%
COc1ccccc1CN1CC(C(=O)NCC2CCCO2)CC1=O (configuration not stated)	1.5%	-0.3%	9.8	-2.3%
CCOc1ccc(S(=O)(=O)Nc2cccc(C(=O)NCC3CCCO3)c2)cc1 (configuration not stated)	-15.9%	.	.	-2.6%
O=c1c2ccccc2c(C=NCCO)c(O)n1-c1ccccc1	1.6%	-10.2%	-10.9	?
COc1ccc(C(C)=O)cc1CC(=O)Nc1cccc(S(=O)(=O)N2CCOCC2)c1	-26.2%	.	.	-0.1%
Cc1ccc(NC(=O)c2ccc3c(c2)OCCO3)cc1C	-2.8%	13.5%	.	?

# Single records, from the list above. Order of screens: Rango dissoc inh	miR-21 FLuc	GLA inh pH 4.5	Rango complex inh
# Cc1ccc(-n2nc3c(c2NC(=O)c2ccc4c(c2)OCO4)CS(=O)(=O)C3)cc1C is listed as 1.5%	-8.5%	.	-4.2%
# O=C1NC(=O)C(c2ccccc2)(c2ccccc2)N1 is listed as 2.4%&-10.4%	1.1%&-3.3%&-0.2%	3.7&-0.9&4.3&7.4	10.7%&-1.3%
# COc1cc(C(=O)N(Cc2ccc(F)cc2)C2CCS(=O)(=O)C2)cc(OC)c1OC (configuration not stated) is listed as 1.3%	-6.1%	-9.9	0.3%
# CCOC(=O)CCCCCC(=O)Nc1ccc2c(c1)CC(=O)N([C@H](C)CO)C[C@H](C)[C@H](CN(C)S(=O)(=O)c1ccc(OC)cc1)O2 is listed as 0.7%	.	.	-3.3%
# O=C(COC(=O)C1=COCCO1)Nc1cccc(S(=O)(=O)N2CCOCC2)c1 is listed as -1.9%	-1.0%	.	4.0%

# Just miR-21 FLuc, Rango dissoc inh and GLA inh pH 4.5, for 4 of the compounds above:
Structure,miR-21 FLuc,Rango dissoc inh,GLA inh pH 4.5
CCOc1ccc(S(=O)(=O)Nc2cccc(C(=O)NCC3CCCO3)c2)cc1 (configuration not stated),.,-15.9%,.
O=c1c2ccccc2c(C=NCCO)c(O)n1-c1ccccc1,-10.2%,1.6%,-10.9
COc1ccc(C(C)=O)cc1CC(=O)Nc1cccc(S(=O)(=O)N2CCOCC2)c1,.,-26.2%,.
Cc1ccc(NC(=O)c2ccc3c(c2)OCCO3)cc1C,13.5%,-2.8%,.

# Continued:
SMILES	Rango dissoc inh	miR-21 FLuc	GLA inh pH 4.5	Rango complex inh
C=CCN1C(=O)c2ccc(C(=O)N(C)CC(=O)Nc3ccc(Br)cc3C)cc2C1=O	-5.2%	.	.	-1.8%
O=C(N/N=C/c1cccs1)C1COc2ccccc2O1 (configuration not stated)	-8.0%	10.0%	7.1	6.8%
COc1ccc(N2C(=O)C(F)(F)C2c2ccc(C)cc2)cc1OC (configuration not stated)	3.0%	-0.6%	-3.6	-2.5%
O=C(NN1CCOCC1)c1ccc(F)cc1	3.5%	-2.3%	.	1.9%
Cc1ccc(S(=O)(=O)NCCC(=O)N2CC(C)OC(C)C2)cc1 (configuration not stated)	0.3%	.	.	-0.1%
CN(CC(=O)Nc1cccc(F)c1)CC(=O)Nc1cccc2ccccc12	-11.8%	.	.	-0.4%
COc1ccc(C2(C(=O)NC(C)C)CCCC2)cc1OC	5.8%	-0.7%	-4.1	1.7%
NC(=S)N/N=C/c1ccccc1OCCSc1ccc(Cl)cc1	-3.2%	21.8%	14.2	0.1%
Cc1ccc(-c2ccnc3c(Cl)c(C)nn23)cc1	20.5%	-2.1%	.	-0.9%
O=C(c1ccc(NS(=O)(=O)c2ccc3[nH]c(=O)[nH]c3c2)cc1)N1CCCC(C(F)(F)F)C1 (configuration not stated)	1.4%	.	.	1.7%
CCN1CCN(c2nc3c(c(=O)[nH]c(=O)n3C)n2Cc2ccccc2F)CC1	3.1%	-2.4%	.	-2.0%
CCCCNC1=CC(=O)C(NCCCC)=CC1=O	-14.9%	.	.	0.2%
COc1cccc(/C=C2/SC(=S)N(CC(=O)NC3C=CS(=O)(=O)C3)C2=O)c1 (configuration not stated)	0.1%	0.2%	.	4.8%
CCOC(=O)N1CCN(S(=O)(=O)c2ccc(-n3cnnn3)cc2)CC1	4.0%	0.5%	.	-2.7%
CCOc1cc2c3c(c1)C(C)=CC(C)(C)N3C(=O)C2=O	?	14.3%	-6.9	3.0%
COc1ccccc1CN(C)C(C)C(=O)Nc1cccc(C(C)=O)c1 (configuration not stated)	0.2%	-2.2%	-6.6	2.0%
O=C(Nc1ccn(Cc2ccccc2F)n1)c1ccc(COc2ccc(Cl)cc2Cl)o1	-0.6%	16.3%	-1.0	0.0%
Cc1ccc(S(=O)(=O)N2CCC(C(=O)Nc3nnc(-c4ccco4)s3)CC2)cc1	2.7%	-1.7%	-0.2	0.0%
CCSc1ccccc1C(=O)Nc1ccc([N+](=O)[O-])cc1OC	11.5%	-3.0%	5.4	-3.5%
Cc1cc(C)cc(N2C(=O)C3C4C=CC(C4)C3C2=O)c1 (configuration not stated)	-2.4%	2.2%	-5.1	-1.6%
O=C(c1cc2nc(-c3ccco3)cc(C(F)(F)F)n2n1)N1CCN(c2ccccc2)CC1	-1.2%	-4.7%	-12.8	0.0%
N#Cc1ccsc1NC(=O)COC(=O)C1=NNC(=O)CC1	?	.	.	?
Cc1ccc(C)c(S(=O)(=O)N2CCCC2CNC(=O)C(=O)NCCN2CCOCC2)c1 (configuration not stated)	0.6%	.	.	-0.6%
Nc1c(C(=O)N2CCOCC2)oc2ccccc12	0.4%	-21.1%	.	?
Clc1ccc(OCCCCN2CCc3ccccc3C2)cc1	-9.6%	5.1%	-1.3	-0.5%
CC1Cc2ccccc2N1C(=O)CCn1cccn1 (configuration not stated)	-8.0%	-0.9%	.	-2.8%
OCc1ncccc1O	11.8%	-1.0%	1.9	-2.7%
Cc1ccc(S(=O)(=O)/N=C2\CN(C)C(=O)N2C)cc1	-3.2%	-6.5%	5.2	-1.0%
O=C(Cn1nc(-c2ccccc2)c2ccccc2c1=O)Nc1ccc(F)cc1	6.3%	3.3%	11.3	-2.8%
O=C(NCCOc1ccccc1)C(=O)NCC1CCCO1 (configuration not stated)	-20.1%	-14.0%	8.4	-3.3%
O=[N+]([O-])c1cc(-c2nnc(-c3ccccc3)o2)ccc1Oc1ccc(Cl)cc1	15.5%	-58.7%	3.4	-0.3%
COc1ccc(-c2nc3ncccn3c2Nc2ccc3c(c2)OCCO3)cc1	-12.7%	-12.3%	0.4	1.9%
CC(c1ccccc1)n1cc(C(=O)NCc2cccnc2)nn1 (configuration not stated)	23.0%	-1.1%	0.4	3.3%
COc1ccc(NC(=O)NCc2ccc(Cl)cc2)cc1	10.1%	-22.5%	.	2.5%
Cc1ccc(NC(=O)CCC(=O)OCc2ccc(Br)cc2)cc1	22.9%	-1.8%	2.5	-0.1%
COc1ccc(-c2[nH]ncc2CNCc2cc(C)n(C)n2)c(F)c1	-2.6%	-0.2%	6.8	2.5%
CCOC(=O)c1cc(CC)sc1NC(=O)CC1SC(N)=NC1=O (configuration not stated)	?	4.7%	-12.4	-1.3%
CC(=O)Nc1nonc1NC(=O)CSc1ccccn1	11.8%	-0.4%	1.1	-3.3%
Cc1cc(C)c2[nH]c(=O)c(CN(CC3CCCO3)C(=S)NCc3ccco3)cc2c1 (configuration not stated)	7.9%	-3.6%	-11.0	-0.2%
Cc1ccc(S(=O)(=O)NCCc2ccccc2)cc1	-11.2%	-13.4%	-0.7	-4.7%
CCC1C(=O)NCCN1C(=O)c1cccc(OC2CCN(S(=O)(=O)N(C)C)CC2)c1 (configuration not stated)	0.0%	-15.3%	.	4.6%
Cc1ccccc1C(=O)NNC(=O)Nc1ccccc1	.	-2.3%	-16.3	.

# High-throughput results from PubChem.
